# Ecoli rRNA inh = selective bacterial rRNA inhibition in E. coli. E. coli WT GFP vs humanized-ribosome RFP mutants, fluorescence, 24 h; active compounds read low; DMSO median 0, no signal -100. GFP signal change (wild-type ribosome), % (no concentration beside the values). 1.6% of 350,000 active. AID 720706;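 active means significant combined selectivity score with lowered wild-type GFP, culture density cut under 30%, mutant RFP and density less affected; inactive means any of these conditions unmet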; further: one replicate is shown; some compounds called inactive have numbers as strong as hits
# FGF22 binding = binders of recombinant human FGF22 by thermal shift; Q9HCT0; SYPRO orange fluorescence; percent of sucrose octasulfate shift, DMSO zero; calls only at 9.99 µM; 1.5% of 340,000 active; AID 651658;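 active means melting point raised past a set limit in the mean and every replicate; three in four hits are not shown here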
# Target sequence (Q9HCT0 whole entry, looked up): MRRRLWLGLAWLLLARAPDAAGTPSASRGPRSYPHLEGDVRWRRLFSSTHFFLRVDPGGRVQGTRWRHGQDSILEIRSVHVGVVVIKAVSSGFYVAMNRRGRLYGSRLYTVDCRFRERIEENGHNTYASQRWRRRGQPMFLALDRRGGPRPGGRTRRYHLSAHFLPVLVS
# MLL AF4-AF9 inh = inhibitors of human MLL-AF4/AF9 interaction; P42568; AlphaScreen, biotin-AF4 peptide binding to FLAG-AF9; inhibition, % at 10 µM; 0.47% of 350,000 active; AID 651704;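 active means every replicate reaching a set inhibition limit, whatever the replicate mean, cut at about 25% in these data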;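 further: 0% = plate neutral control median and 100% = total signal loss; the record names both 10 and 1 µM as test concentration; the first replicate is given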
# Target sequence (P42568 whole entry, looked up): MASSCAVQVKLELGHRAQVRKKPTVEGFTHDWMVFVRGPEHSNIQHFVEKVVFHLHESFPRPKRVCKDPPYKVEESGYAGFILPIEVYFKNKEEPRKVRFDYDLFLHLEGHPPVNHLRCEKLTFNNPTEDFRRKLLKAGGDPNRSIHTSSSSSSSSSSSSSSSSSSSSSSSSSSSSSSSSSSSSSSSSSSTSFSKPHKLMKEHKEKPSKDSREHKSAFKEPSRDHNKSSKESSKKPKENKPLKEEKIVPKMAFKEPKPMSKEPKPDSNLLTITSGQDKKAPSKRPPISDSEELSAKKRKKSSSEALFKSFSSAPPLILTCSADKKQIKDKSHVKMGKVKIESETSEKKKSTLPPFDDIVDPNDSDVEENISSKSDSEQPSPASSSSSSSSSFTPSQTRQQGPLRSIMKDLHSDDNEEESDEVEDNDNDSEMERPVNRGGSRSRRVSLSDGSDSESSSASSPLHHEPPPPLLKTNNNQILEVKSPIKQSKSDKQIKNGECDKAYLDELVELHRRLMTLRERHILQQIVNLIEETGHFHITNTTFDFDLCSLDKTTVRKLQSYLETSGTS
# Ecoli rRNA inh OD600 = second read-out of Ecoli rRNA inh, no call of its own (marks repeat the call); OD600 change, %; measured here: OD600 growth;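 optical density of the mix in the first replicate; 0 = DMSO median and -100 = no signal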
# Ecoli rRNA inh RFP = recorded beside Ecoli rRNA inh, whose call it bears; RFP signal change, %; measured here: RFP humanized mutant strains;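 first replicate; 0 = DMSO median and -100 = no signal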
# * marks the source's active call; other numbers are inactive results; i = inactive; & = joins results of further samples. An excerpt; the hit share may differ from the screen's.
SMILES,Ecoli rRNA inh,Ecoli rRNA inh OD600,Ecoli rRNA inh RFP,FGF22 binding,MLL AF4-AF9 inh
CNC[C@H]1Oc2cc(-c3ccc(C(=O)N(C)C)cc3)ccc2S(=O)(=O)N([C@@H](C)CO)C[C@@H]1C,-3,-8,2.5,i,-0.9
O=C(C[C@@H]1CC[C@H]2[C@@H](COC[C@H](O)CN2C(=O)c2ccncc2)O1)NCc1cc(F)cc(F)c1,2,8,-2.1,i,-12
C[C@H](CO)N1C[C@H](C)[C@H](CN(C)C(=O)Nc2ccc(N3CCCCC3)cc2)OCc2cn(nn2)CCCC1=O,1,-1,2.4,i,9.7
C[C@@H]1CN([C@@H](C)CO)C(=O)CCCn2nncc2CO[C@@H]1CN(C)C(=O)C1CC1,18&2,20&1,3.3&0.0,i,-0.6&-2.1
C[C@H](CO)N1C[C@H](C)[C@@H](CN(C)C(=O)Nc2ccnc(N3CCOCC3)c2)OCc2cnnn2CCCC1=O,-2&1,2&1,2.2&1.8,i,1.7&-3.5&-0.2
CO[C@@H]1CN(C)C(=O)c2ccc(NC(=O)Nc3c(C)noc3C)cc2OC[C@@H](C)N(C)C[C@@H]1C,3,6,0.4,i,-1.9
CC(=O)N1[C@@H]2CN(S(=O)(=O)c3ccccc3)c3ccccc3[C@@H]2[C@@H]1CO,-1,2,-1.8,i,-0.1
Cc1ncc([N+](=O)[O-])n1S(=O)(=O)c1ccc2c(c1)OCCO2,11,16,-2.0,i,-1.5
Cn1nc(C(C)(C)C)cc1C(=O)N1CCCCC1c1cc(C(=O)Nc2ccc(F)c(Cl)c2)no1 (configuration not stated),12,9,4.4,i,-2.1
COc1ccc(S(=O)(=O)N(C)C[C@H]2OCCCC[C@H](C)Oc3ccc(NC(=O)c4ccccc4)cc3C(=O)N([C@H](C)CO)C[C@H]2C)cc1,-1,6,-0.6,i,-2.9
C[C@H](O)C#Cc1cnc2c(c1)C(=O)N([C@H](C)CO)C[C@@H](C)[C@@H](CN(C)C(=O)CN1CCOCC1)O2,1,10,-1.5,i,-1.8
CC(=O)c1ccc2c(c1)N(Cc1ccc3ccccc3c1)C(=O)C(C)S2 (configuration not stated),-6,0,1.1,i,-5.7
C[C@H](CO)N1C[C@H](C)[C@H](CN(C)C(=O)Nc2ccccc2)Oc2ncc(-c3cccc(C(F)(F)F)c3)cc2C1=O,-7,-32,14,i,4.1
COc1cccc(S(=O)(=O)N2CCCCN3[C@H](CO)[C@H](c4ccc(C#CCC(C)C)cc4)[C@H]3C2)c1,-20,-19,16,i,0.3
CCNC(=O)[C@H]1[C@H](CO)[C@H]2Cn3c(ccc(C4=CCCC4)c3=O)[C@@H]1N2Cc1cccnc1,2,2,2.3,i,0.7
C#CCN(C[C@@H]1[C@@H](OC(=O)NCc2ccccc2)[C@@H](OC(=O)NCc2ccccc2)Cn2c(=O)n(CCCCCC)c(=O)n21)S(=O)(=O)c1ccc(C)cc1,6,17,-0.8,i,-5.3
C[C@H]1CN([C@@H](C)CO)C(=O)Cc2cc(NC(=O)CCN3CCOCC3)ccc2O[C@@H]1CN(C)Cc1ccc(Cl)c(Cl)c1,-1,6,8.2,i,2.3
COC(=O)C[C@@H]1CC[C@@H]2[C@@H](COc3ccc(NC(=O)Cc4cccs4)cc3C(=O)N2C)O1,0,-3,1.0,i,1.9
CCNC(=O)C[C@H]1CC[C@H]2[C@H](COc3ccc(NC(=O)Nc4ccccc4C)cc3C(=O)N2C)O1,2,2,-1.9,i,-0.7
Cc1ccc(S(=O)(=O)N[C@H]2C=C[C@H](CC(=O)O)O[C@@H]2CO)cc1,0,4,0.3,i,0.1
C[C@H](CO)N1C[C@H](C)[C@H](CN(C)Cc2ccc(C(=O)O)cc2)Oc2ccc(NS(=O)(=O)c3ccc(Cl)cc3)cc2CC1=O,4,8,-1.3,i,-4.3
C[C@H]1CN([C@@H](C)CO)C(=O)c2cc(C#CCN(C)C)cnc2O[C@@H]1CN(C)C(=O)NC1CCCC1,1,3,-0.3,i,-2.4
CNC[C@H]1OCCCC[C@H](C)Oc2ccc(NS(=O)(=O)c3cn(C)cn3)cc2C(=O)N([C@@H](C)CO)C[C@@H]1C,8,4,-1.9,i,-24
CC(C)NC(=O)N(C)C[C@@H]1Oc2ccc(NS(=O)(=O)c3ccccc3)cc2C(=O)N([C@@H](C)CO)C[C@H]1C,-1,2,-3.4,i,1.6
O=C(Nc1cccc([N+](=O)[O-])c1)NN1CCCCCC1,-60,-78,-21,i,4.7
O=[N+]([O-])c1ccc(C=NN2CCCCCC2)cc1,0,-9,-1.9,i,35*
COc1ccc(S(=O)(=O)Nc2ccc3c(c2)C(=O)N([C@@H](C)CO)C[C@@H](C)[C@@H](CN(C)Cc2ccc(Cl)c(Cl)c2)OCCCC[C@@H](C)O3)cc1,1,-1,4.7,i,1.2
C[C@@H]1CN([C@@H](C)CO)C(=O)Cc2cc(NC(=O)Nc3ccc(C(F)(F)F)cc3)ccc2O[C@H]1CN(C)C(=O)Nc1ccc2c(c1)OCO2,-5,-3,-0.4,i,14
CNC[C@H]1OCCCC[C@@H](C)Oc2ccc(NC(=O)Nc3cccc4ccccc34)cc2C(=O)N([C@H](C)CO)C[C@@H]1C,-3,2,3.0,i,-0.2
C[C@@H]1CN([C@@H](C)CO)C(=O)c2cc(NS(=O)(=O)c3ccc(Cl)cc3)ccc2O[C@@H]1CN(C)Cc1ccccc1,-6,-22,6.5,i,6.2
COc1cccc(Cn2c(C(C)n3c(C)nc4ccccc43)nc3ccccc32)c1 (configuration not stated),-16,-13,4.1,i,0.9
C[C@@H]1CCCCO[C@@H](CN(C)C(=O)Cc2ccccc2)[C@@H](C)CN([C@@H](C)CO)C(=O)c2cc(NC(=O)CCCN(C)C)ccc2O1,5,9,-0.9,i,-0.6
C[C@H]1CN([C@@H](C)CO)C(=O)Cc2cc(NC(=O)C3CC3)ccc2O[C@@H]1CN(C)Cc1ccc(Cl)c(Cl)c1,-8,-40,6.1,i,-1.2
CN(C)C(CNC(=O)c1cccc(S(=O)(=O)Nc2ccc(SC(F)F)cc2)c1)c1ccccc1 (configuration not stated),-45,-76,-11,i,2.9
CN(C)CCCNC(=O)C[C@H]1C=C[C@H](NC(=O)c2ccccc2F)[C@H](CO)O1,5,4,-0.2,i,-15
COc1ccc2c3c(n(C)c2c1)[C@@H](CO)NCC31CN(C(=O)Nc2ccc3c(c2)OCO3)C1,0,-1,0.9,i,4.5
O=C(C[C@@H]1CC[C@H]2[C@@H](COC[C@H](O)CN2C(=O)Nc2ccc(Cl)cc2)O1)NCC1CC1,-41,-42,-13,i,1.5
N#C[C@@H]1[C@@H](c2ccc(-c3ccccc3)cc2)[C@@H](CO)N1C(=O)Cc1ccncc1,3,5,0.8,i,-1.4
CCCC#Cc1cnc2c(c1)C(=O)N([C@H](C)CO)C[C@@H](C)[C@H](CN(C)Cc1ccc(F)cc1)O2,1,-11,4.5,i,4.9
CCC(=O)N1C[C@H](C)[C@H](OC)CN(C)C(=O)c2ccc(NC(=O)Nc3ccccc3)cc2OC[C@@H]1C,-4,-8,0.5,i,0.0
O=C(C[C@@H]1C[C@H]2c3cc(NC(=O)CC4CC4)ccc3O[C@H]2[C@@H](CO)O1)NCc1cccnc1,2,2,-0.9,i,0.4
CCC(=O)Nc1ccc2c(c1)OC[C@H](C)N(Cc1ccncc1)C[C@H](C)[C@@H](OC)CN(C)C2=O,-2,-5,-0.6,i,-5.7
Cc1nn(C)cc1NC(=O)C[C@@H]1CC[C@H]2[C@@H](COc3ccc(NC(=O)NC(C)C)cc3C(=O)N2C)O1,4,0,-1.2,i,-2.0
CN(C)C(=O)C[C@H]1CC[C@@H]2[C@H](COC[C@H](O)CN2CC2CCOCC2)O1,6,22,-2.2,i,-2.1
C[C@@H]1CN([C@@H](C)CO)C(=O)Cc2cc(NC(=O)Nc3ccc(F)cc3)ccc2O[C@H]1CN(C)S(=O)(=O)c1ccc(F)cc1,3,-1,0.9,i,-1.2
CC(C)OC(=O)N(C)C[C@@H]1OCc2cnnn2CCCC(=O)N([C@@H](C)CO)C[C@@H]1C,5&1,1&5,4.3&-2.8,i,0.1&-0.8&-0.2
COCC(=O)Nc1ccc2c(c1)OC[C@@H](C)N(C(=O)NC(C)C)C[C@@H](C)[C@H](OC)CN(C)C2=O,1,5,1.8,i,-10
O=C(Nc1ccc(F)cc1)N[C@@H]1C=C[C@@H](CC(=O)N2CCCCC2)O[C@@H]1CO,0,2,-2.3,i,-1.8
C[C@H](C(=O)N(C)C[C@@H]1OCc2ccccc2-c2c(n(C)c3ccccc23)C(=O)N([C@H](C)CO)C[C@H]1C)c1ccccc1,-2,0,1.4,i,2.7
O=C(C[C@@H]1CC[C@H](NC(=O)Cc2ccccn2)[C@H](CO)O1)NCCc1ccncc1,-2,5,-1.4,i,1.7

# (next part)
SMILES,Ecoli rRNA inh,Ecoli rRNA inh OD600,Ecoli rRNA inh RFP,FGF22 binding,MLL AF4-AF9 inh
Cc1noc(C)c1S(=O)(=O)N(C)C[C@H]1Oc2ccc(NC(=O)C3CC3)cc2CC(=O)N([C@@H](C)CO)C[C@@H]1C,0,-4,-0.7,i,-0.1
CCCN1[C@@H]2c3ccc(C4=CCCC4)c(=O)n3C[C@H]1[C@H](CO)[C@H]2C(=O)NCCOC,2,0,-3.7,i,-1.2
C[C@@H]1CCCCO[C@H](CN(C)C(=O)Nc2ccc3c(c2)OCO3)[C@@H](C)CN([C@H](C)CO)C(=O)c2cc(NS(=O)(=O)c3cn(C)cn3)ccc2O1,2,7,-0.8,i,-16
CC(C)NC(=O)N(C)C[C@@H]1OCCCC[C@H](C)Oc2ccc(NS(=O)(=O)c3cn(C)cn3)cc2C(=O)N([C@@H](C)CO)C[C@@H]1C,5,4,-1.6,i,-0.5
COCCNC(=O)[C@H]1[C@H](CO)[C@H]2Cn3c(ccc(-c4ccc(OC)cc4)c3=O)[C@@H]1N2C(=O)NC(C)C,1,3,-0.2,i,1.3
Cc1ccc(S(=O)(=O)N2CCC(=O)N([C@H](COCc3ccc(Cl)cc3Cl)Cc3ccccc3)CC2)cc1,18,16,4.3,i,-2.0
COc1ccccc1-c1ccc([C@H]2[C@@H](C#N)N(C(=O)C3CC3)[C@H]2CO)cc1,0,3,0.5,i,0.9
CCC(=C(c1ccc(O)cc1)c1ccc(OCCN(C)C)cc1)c1ccccc1,-22,-8,-4.0,i,4.4
Cc1ccc(-c2cnc3c(c2)C(=O)N([C@@H](C)CO)C[C@@H](C)[C@@H](CN(C)C(=O)c2ccccc2)O3)cc1,0,-15,-0.9,i,-1.3
CCCNC(=O)c1cc2c(c(-c3cccc(-c4ccccc4F)c3)n1)[C@H](CCO)N(C(=O)CC1CC1)C2,3,0,6.5,i,-0.9

# In the list so far, 7 have an aryl methoxy group:
SMILES,Ecoli rRNA inh,Ecoli rRNA inh OD600,Ecoli rRNA inh RFP,FGF22 binding,MLL AF4-AF9 inh
COc1ccc(S(=O)(=O)N(C)C[C@H]2OCCCC[C@H](C)Oc3ccc(NC(=O)c4ccccc4)cc3C(=O)N([C@H](C)CO)C[C@H]2C)cc1,-1,6,-0.6,i,-2.9
COc1cccc(S(=O)(=O)N2CCCCN3[C@H](CO)[C@H](c4ccc(C#CCC(C)C)cc4)[C@H]3C2)c1,-20,-19,16,i,0.3
COc1ccc(S(=O)(=O)Nc2ccc3c(c2)C(=O)N([C@@H](C)CO)C[C@@H](C)[C@@H](CN(C)Cc2ccc(Cl)c(Cl)c2)OCCCC[C@@H](C)O3)cc1,1,-1,4.7,i,1.2
COc1cccc(Cn2c(C(C)n3c(C)nc4ccccc43)nc3ccccc32)c1 (configuration not stated),-16,-13,4.1,i,0.9
COc1ccc2c3c(n(C)c2c1)[C@@H](CO)NCC31CN(C(=O)Nc2ccc3c(c2)OCO3)C1,0,-1,0.9,i,4.5
COCCNC(=O)[C@H]1[C@H](CO)[C@H]2Cn3c(ccc(-c4ccc(OC)cc4)c3=O)[C@@H]1N2C(=O)NC(C)C,1,3,-0.2,i,1.3
COc1ccccc1-c1ccc([C@H]2[C@@H](C#N)N(C(=O)C3CC3)[C@H]2CO)cc1,0,3,0.5,i,0.9

# Next records:
SMILES,Ecoli rRNA inh,Ecoli rRNA inh OD600,Ecoli rRNA inh RFP,FGF22 binding,MLL AF4-AF9 inh
O=C(C1CCOCC1)N1C[C@H]2[C@@H](c3ccccc31)[C@H](CO)N2C(=O)Cc1ccccn1,6,12,1.3,i,0.7
CC=Cc1ccc2n(c1=O)C[C@H]1[C@H](CO)[C@@H](C(=O)N(C)C)N(CC3CCCCC3)[C@@H]21 (mixture of isomers),-2,-1,1.4,i,3.1
Cc1ccc(S(=O)(=O)NN=C2CC3CCC2(C)C3(C)C)cc1 (configuration not stated),0,1,3.9,i,0.6
C[C@@H]1CN([C@H](C)CO)C(=O)c2cc(NC(=O)Nc3ccc(C(F)(F)F)cc3)ccc2O[C@H]1CN(C)C(=O)Nc1ccc2c(c1)OCO2,-1,-1,1.8,i,3.2
COc1ccc2c3c(n(C)c2c1)[C@@H](CO)N(C(C)=O)CC31CN(S(=O)(=O)c2ccccc2)C1,-6,-18,-2.1,i,4.9
C[C@@H]1CN([C@H](C)CO)C(=O)c2cc(-c3ccc(C#N)cc3)cnc2O[C@@H]1CN(C)Cc1cncnc1,-1,1,-1.0,i,-5.0

# Screening results (PubChem BioAssay)
